Screens: PubChem BioAssay, National Center for Advancing Translational Sciences (NCATS)
Cruzain inh noDet = inhibitors of Trypanosoma cruzi cruzain without detergent | P25779 | purified cruzain, Z-FR-AMC fluorescence, no detergent | Potency, µM, inactives show max response, negative = inhibition, actives largely listed as inhibitors | 200,000 tested, 2.3% active;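 also: plate controls were enzyme without inhibitor for no effect and buffer without enzyme for full effect; nearly all actives have a fitted effect of over 40% in size; top concentration of the series not given in the record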
Target sequence (P25779 123-467 limits assumed): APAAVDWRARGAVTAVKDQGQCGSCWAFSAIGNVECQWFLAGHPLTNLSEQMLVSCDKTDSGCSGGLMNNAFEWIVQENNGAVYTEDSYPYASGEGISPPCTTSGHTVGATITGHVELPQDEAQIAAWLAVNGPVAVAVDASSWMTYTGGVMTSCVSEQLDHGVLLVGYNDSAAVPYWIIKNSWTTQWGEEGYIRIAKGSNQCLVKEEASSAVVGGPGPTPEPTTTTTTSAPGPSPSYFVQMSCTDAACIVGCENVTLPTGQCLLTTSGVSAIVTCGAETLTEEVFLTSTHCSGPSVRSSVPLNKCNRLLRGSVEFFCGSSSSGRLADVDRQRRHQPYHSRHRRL
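Purified cruzain at 1.5 nM, pre-incubated 15 min with compound at room temperature in 100 mM sodium acetate pH 5.5, 5 mM DTT, 0.00005% Triton X-100. Reaction started with 2 uM Z-FR-AMC; AMC fluorescence increase over 60 s gives rate.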
Marburg entry inh = blocks Marburg virus binding to or entry into cells | Marburg virus pseudotyped entry inhibition, cell reporter; control for the full effect not named in the record; about a third of the inactives were read at about 46 µM | Potency, µM (series often up to 37.8 µM), for the others: at the top dose activity change, negative = inhibition, most hits filed as inhibitors | 300,000 tested, 1.8% active | AID 540276; active = well fitted inhibition curve with a large enough effect; inconclusive = small, poorly fitted or top-dose-only effect, or effect the other way; inactive = flat fitted curve, though single readings scatter; tested in HEK293 cells; about a fifth of its hits are not listed in these tables; also: % is scaled to controls: 0 for no effect and ±100 for the full control effect; luciferase read-out
Cruzain Triton = cruzain (T. cruzi) inhibition with detergent; purified cruzain, Z-FR-AMC fluorescence, 0.01% Triton; AID 1478; 200,000 tested, 0.43% active; Potency, µM, without a hit: max response, negative = inhibition, most hits filed as inhibitors; P25779;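 also: plate controls were neutral wells for no effect and buffer without enzyme for full effect; nearly all actives have a fitted effect of over 40% in size; top concentration of the series not given in the record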
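In this qHTS format, compounds are incubated with 1.5 nM cruzain for 15 min at room temperature before 2 uM Z-FR-AMC is added. Release of AMC is followed at 360/450 nm, and progress is taken as the 60 s fluorescence difference.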
StopGo reporter = FMDV 2A StopGo reporter, luciferase signal; Potency, µM (highest dose often 57.9 µM), inactives show top-dose signal change, negative = less light; 410,000 tested, 1.2% active; human cells with a luciferase reporter of 2A StopGo recoding; control for the full effect not named in the record; active = well fitted falling curve with a large enough effect; inconclusive = small, poorly fitted or top-dose-only effect; inactive = no such curve, though single readings can be large or run the other way; tested in HEK293T cells; also: % is scaled to controls: 0 for no effect and ±100 for the full control effect; nearly all actives have a fitted effect of over 45% in size; luciferase light after 4 h
NS1 function inh = inhibitors of influenza NS1 protein function; AID 2326; S. cerevisiae slowed by influenza A NS1, growth recovery by OD600; 270,000 tested, 0.4% active; Potency, µM (highest dose often 46.1 µM), without a hit: at the top dose activity, positive = more growth; active means well fitted rising curve with a large enough effect; inconclusive means small, poorly fitted or top-dose-only effect; inactive means no such curve, though single readings can be large or run the other way; also: nearly all actives have a fitted effect of over 50% in size
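Compounds were scored for reversing the slow growth caused by influenza A NS1 in S. cerevisiae, measured by optical density at 600 nm. Assay medium contained 2% galactose at pH 6.0; NS1-free yeast of the same strain were the positive control.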
Lassa entry inh = Lassa virus entry inhibition; Potency, µM (highest dose often 37.9 µM), without a hit: at the highest dose activity change, negative = inhibition, usual class: inhibitors; Lassa virus pseudotype entry inhibition, cell reporter; control for the full effect not named in the record; 300,000 tested, 1.2% active; active means well fitted inhibition curve with a large enough effect; inconclusive means small, poorly fitted or top-dose-only effect, or effect the other way; inactive means flat fitted curve, though single readings scatter; tested in HEK293 cells; also: % is scaled to controls: 0 for no effect and ±100 for the full control effect; nearly all actives have a fitted effect of over 50% in size; luciferase read-out
RE007 growth inh = less growth of the S. pombe RE007 Vpr strain; S. pombe RE007 Vpr strain, BacTiter-Glo ATP luminescence, 24 h; control for the full effect not named in the record; Potency, µM (titrated, usually from 92.2 µM), for inactives: at the top dose activity change, negative = less growth; 360,000 tested, 0.21% active; AID 651644; active = well fitted falling curve with a large enough effect; inconclusive = small, poorly fitted or top-dose-only effect; inactive = no such curve, though single readings can be large or run the other way;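 also: % is scaled to controls: 0 for no effect and ±100 for the full control effect; nearly all actives have a fitted effect of over 50% in size; the assay follows cell death caused by Vpr and the record does not say whether a fall means rescue or toxicity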
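Fission yeast strain RE007, carrying one chromosomally integrated HIV-1 vpr copy, was seeded at OD 0.01 in PMG+AL medium with 23 nL pinned compound. After 24 h at 30 °C and 99% humidity, viability was read by BacTiter-Glo luminescence.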
SARS PLpro yeast = inhibitors of SARS-CoV papain-like protease in yeast; S. cerevisiae expressing SARS-CoV PLpro, growth rescue; control for the full effect not named in the record; Potency, µM (titrated, usually from 32.9 µM), for inactives: at the top dose activity, positive = growth rescue; 330,000 tested, 0.19% active; AID 485353; active means well fitted rising curve with a large enough effect; inconclusive means small, poorly fitted or top-dose-only effect; inactive means no such curve, though single readings can be large or run the other way; also: 0% is about no effect; nearly all actives have a fitted effect of over 55% in size; growth read by luminescence after 48 h
* = called active by the depositor; ? = inconclusive; · = not tested or not shown; & = joins results of further samples; [ ] = remark or other dose. Unless noted, calls follow the shape of the dose curve; as a rule, active = well fitted curve in the direction sought with a large enough effect; inconclusive = small, poorly fitted or top-dose-only effect, or another doubt; inactive = no such curve, though single readings can be large; an effect the other way counts as inactive or inconclusive. Potency is read from the fitted curve at half-maximal effect.

SMILES	Cruzain inh noDet	Marburg entry inh	Cruzain Triton	StopGo reporter	NS1 function inh	Lassa entry inh	RE007 growth inh	SARS PLpro yeast
Cc1cn2c(=O)cc(COC(=O)c3cccc(NC(=O)c4ccc(C(C)(C)C)cc4)c3)nc2s1	-3%	·	-0.2%	2%	·	?	·	·
NC(=O)COC(=O)c1ccc(NS(=O)(=O)c2ccc3c(c2)OCCO3)cc1	·	-1%[46.1 µM]	·	1%	8%	3%	8%	6%
COc1cc(C2C=C(C(=O)O)Nc3ncnn32)ccc1O (stereo not drawn)	4%	-2%[46.1 µM]	-2.3%	-16%	·	1%[46.1 µM]	·	·
COc1cc(CCC(=O)OCn2nnc3ccccc3c2=O)cc(OC)c1OC	-1%	-2%	5.0%	-14%	-4%	15%	-3%	-1%
Cc1ccc(S(=O)(=O)NC(=O)Nc2cc(C)no2)cc1	·	·	·	-1%	0%	·	-13%	0%
COc1ccc(C)cc1N(CC(=O)N1CCCC1)S(C)(=O)=O	·	?	·	3%	9%	19%	-3%	6%
COc1cc(C2C(Oc3ccccc3C)C(=O)N2Cc2ccc(F)cc2)cc(OC)c1OC (stereo not drawn)	9%	?	-1.7%	11%	-42%	-4%	0%	-10%
C=CCSc1n[nH]c(-c2ccc(OCCC)cc2)n1	1%	15%	-6.1%	53%[activator]	-95%	?	-29%	-15%
CCOc1nc(-c2ccccc2)ccc1-c1noc(-c2ccco2)n1	-5%	?	-9.9%	-10%	-2%&0%	-9%	17%	-2%
CSCCC(NC(=O)c1ccccc1)C(=O)N(C)CC(=O)Nc1ccc(N2CCOCC2)cc1 (stereo not drawn)	·	1%	·	-5%	-3%	0%	-1%	-3%
Oc1c(Cl)cc(Cl)cc1CNc1ccccn1	·	?	·	9%	-81%	20%	1%	-13%
Cc1cc(C)nc(N2CCC(C(=O)NC3CC3)CC2)n1	·	1%[46.1 µM]	·	-3%	-10%	-3%[46.1 µM]	-15%	1%
COc1ccc(-n2cc(-c3ccccc3)c3c(N4CCN(CCO)CC4)ncnc32)cc1	9%	?	1.1%	?	-55%	?	-9%	-7%
CCOc1ccccc1OCC(=O)NC1CCCCC1	5%	3%	3.5%	-2%	-55%	3%	2%[3.69 µM]	-8%
O=C(CCCn1c(=O)c2ccccc2n(CC(=O)Nc2cccc(Cl)c2)c1=O)NCc1ccc2c(c1)OCO2	-3%	-25%[46.1 µM]	-3.9%	-8%	·	-1%[46.1 µM]	·	·
CCCCn1nnnc1SCC(=O)Nc1ccc(N(C)C)cc1	8%	17%[46.1 µM]	-1.0%	28%	1%	?	-13%	-3%
CCN1CCN(C(=O)CS(=O)(=O)Cc2nc(-c3ccc(C)cc3)oc2C)CC1	0%	·	-2.5%	-23%	6%	·	-1%	-2%
O=C(CCCOc1ccccc1)n1nnc2ccccc21	4%	12%	5.1%	24%	3%	-2%	3%	-8%
C#CC(CC)(CC)NC(=O)c1c(C)noc1C	10%	12%	6.5%	-19%	-3%	-2%	-2%	0%
COC(=O)c1sc(NC(=O)COC(=O)C2CCC2)c(C(=O)OC)c1C	·	?	·	-14%	·	12%	-6%	2%
COC(=O)c1c(NC(=O)c2ccoc2C)sc(C)c1C	·	?	·	-11%	2%	?	-12%	-2%
CCOc1ncccc1C(=O)Nc1ccc(-c2cn3ccsc3n2)cc1	-17%	-10%	-20%	-17%	-17%	-1%	-4%	2%
O=C(CCC1CCCC1)N=C1SC2CS(=O)(=O)CC2N1Cc1ccccc1 (stereo not drawn)	·	·	·	3%	2%	·	6%	-1%
Cc1ccnc(NC(c2ccncc2)c2c(C)[nH]c3ccccc23)c1 (stereo not drawn)	8%	?	-1.5%	-19%	-2%	2%	-15%	-1%
Cn1c(NCc2ccccc2O)nc2ccccc21	-16%	-14%[46.1 µM]	-3.0%	42%[activator]	-6%	24%	0%	4%
O=C1CC(O)(C(F)(F)F)Oc2c1ccc1ccccc21 (stereo not drawn)	4%	-5%	-8.2%	·	-143%	?	?	-8%
Cc1cc(C)c(NC(=O)C2CCN(c3nc4ccccc4n4cccc34)CC2)c(C)c1	-11%	·	-6.1%	18%	·	2%[46.1 µM]	·	·
CCOc1ccc(Br)cc1S(=O)(=O)Nc1cccc(S(=O)(=O)NC2=NCCC2)c1	·	·	·	34%[activator]	1%	·	0%	-1%
COc1ccc(N2C(=O)C(CC(=O)Nc3ccccc3)N(Cc3ccc4c(c3)OCO4)C2=O)cc1 (stereo not drawn)	-1%	?	2.8%	10%	?	18%[14.3 µM]	3%	6%
CCOC(=O)/C(C#N)=C\c1ccc(CC)s1	-3%	15%	-3.1%	46%[activator]	-32%	19%	-30%	-4%
Cc1ccc(O)c(CN2CCC3CCC(C3)C2)c1 (stereo not drawn)	·	?	·	-18%	·	3%	17%	·
O=C(CCC1CCCCC1)NCCN1CCOCC1	·	-6%	·	1%	13%	-2%	6%	7%
Cc1ccc(NC(=O)CSc2nnc(NC(=O)CN3CCOCC3)s2)cc1	-10%	6%	-3.0%	-16%	15%	4%	-5%	6%
CCOC(=O)c1cc2cc3ccccc3cc2[nH]1	25µM*	?	-5.9%	45%[activator]	0%	?	-21%	-4%
CCCCOC(=O)Nc1ccc(C(=O)OCCC)cc1	-2%	11%	-7.9%	17%	-64%	?	?	-7%
CCN(CC)S(=O)(=O)c1cc(OC)c(Cl)cc1Cl	-9%	-22%	-1.2%	-23%	-89%	-22%	-3%	-4%
Nc1cc(=O)[nH]n1C1CCCCC1	·	1%[46.1 µM]	·	-5%	8%	1%[46.1 µM]	-3%	0%
CCOC(=O)CN1C(=O)Nc2ccc(Br)cc2C1c1ccccc1 (stereo not drawn)	-17%	-30%	-6.7%	-23%	9%	?	-3%	-2%
COc1ccc(C(=O)N2CC3(C)CC2CC(C)(C)C3)cc1 (stereo not drawn)	2%	-1%	6.7%	15%	-17%	-28%	2%	·
Cc1c(C(=O)O)cc(-c2ccccc2)n1Cc1ccccc1	·	15%	·	-3%	-34%	?	-4%	-2%
COc1ccc(N=N/C(=C\O)C(=O)c2cccs2)cc1	·	-29%[46.1 µM]	·	-8%	·	?	38%	-5%
COC(=O)C(CCSC)NC(=O)c1cc2c(n(-c3ccc(Cl)cc3)c1=O)CCCC2=O (stereo not drawn)	9%	3%[46.1 µM]	-1.8%	-18%	·	6%[46.1 µM]	·	·
CCc1ccccc1NS(=O)(=O)c1c(C(=O)N2CCCCCC2)c(C)n(C)c1C	·	·	·	32%[activator]	4%	·	1%	14%
COc1cccc(-c2nc(S(=O)(=O)c3ccccc3)c(N3CCCCC3)o2)c1	-1%	3%[46.1 µM]	-6.9%	-10%	·	-24%[46.1 µM]	·	·
O=C(c1cc(C2CC2)nc2ccccc12)N1N=C(C(F)F)CC1(O)C(F)F (stereo not drawn)	-6%	-3%	-5.3%	-15%	-8%	-13%	-2%	-4%
CCC(=O)N1CCc2cc(S(=O)(=O)CCC(=O)NCc3ccccc3OC)ccc21	3%	7%&7%[46.1 µM]	-2.4%	-7%&-9%	-7%	-18%[46.1 µM]	0%	2%
O=S(=O)(c1ccc(Br)cc1)N1CCN(c2ccc3nnc(-c4ccccc4)n3n2)CC1	?	0%	4.9%	0%	4%	·	6%	3%
Cn1cc([N+](=O)[O-])c(C(=O)NC2CCCCCC2)n1	·	·	·	-15%	10%	·	7%	14%
COc1ccccc1C(=O)NCC(=O)N/N=C/c1cn[nH]c1-c1ccccc1	·	?	·	-16%	·	-10%[46.1 µM]	-2%	-7%
CC(C1CC1)N(Cc1ccccc1)C(=S)Nc1ccccc1Cl (stereo not drawn)	·	?	·	-2%	·	?	11%	9%
Continued:
SMILES	Cruzain inh noDet	Marburg entry inh	Cruzain Triton	StopGo reporter	NS1 function inh	Lassa entry inh	RE007 growth inh	SARS PLpro yeast
Cc1ccc(C(=O)N2CCCN(c3nc4cc5c(cc4cc3C#N)OCO5)CC2)cc1	·	?	·	-9%	-13%	?	-4%	-8%
CCC1=C(c2ccc(C)cc2)S(=O)(=O)N=C1N1CCC(C(=O)NCCc2ccc(Cl)cc2)CC1	?	?	-4.8%	-17%	·	·	·	·
COc1ccc(C(=O)C2CCCN(S(=O)(=O)N(C)C)C2)c(C)c1 (stereo not drawn)	·	?	·	-4%	-1%	-6%[46.1 µM]	-10%	4%
CCOc1ccc(CN(C)CC(=O)NNC(=O)c2ccc(Cl)cc2)cc1OC	-1%	0%	-1.3%	0%	-1%	4%	-21%	-25%
Cc1cccc(C(=O)NCC(=O)OCC(=O)N2CCc3ccccc32)c1	·	-5%[46.1 µM]	·	1%	·	?	2%	-1%
COCCCNC(=O)C[C@H]1C[C@H](C(=O)N(C(C)C)C(C)C)[C@@]2(C)c3[nH]c4cc(-c5ccco5)ccc4c3CCN2C1=O	·	-6%	·	-23%	·	·	-8%	-3%
COc1ccc(NC(=O)CN2CCN(CC(=O)Nc3ccc(OC)c(OC)c3)CC2)cc1	1%	25%	2.0%	-5%	-2%	-2%	5%	-2%
COc1ccccc1CNC(=O)CCc1cn(C)c2ccccc12	·	-29%[46.1 µM]	·	-6%	-13%	17%[46.1 µM]	2%	1%
COc1cccc(-c2nc(SCc3cc(=O)c4cc(Cl)ccc4[nH]3)n[nH]2)c1	-8%	·	1.2%	-16%	·	?	·	·
COc1ccccc1/C=C(\NC(=O)c1ccccc1)C(=O)NCc1ccco1	·	15%[46.1 µM]	·	14%	9%	-13%[46.1 µM]	-7%	-3%
COc1ccc(CN2C(=O)Cc3c2nc(N)c2c(N)nc(N4CCCCC4)c(C#N)c32)cc1	6.3µM*	·	-9.4%	·	18%	·	·	10%
C=C(C)c1cccc(C(C)(C)NC(=O)N2CCN(CC)CC2)c1	2%	-1%	-0.8%	-6%	-11%	6%	12%	22%
CC[n+]1c(/C=C(\C)Nc2ccccc2)sc2ccccc21	-19%	?	-9.5%	-21%	19%	-3%	-1%	-15%
CCOc1ccc(C(=O)NC(=S)Nc2ccc(N3CCOCC3)c(Cl)c2)cc1[N+](=O)[O-]	-11%	0%	-5.2%	?	14%	1%	?	?

Compounds were not picked by outcome; overall some 4.5% were active at least once.
